Bioassay records deposited in PubChem BioAssay by National Center for Advancing Translational Sciences (NCATS).
NPR1 antag: antagonists of human natriuretic peptide receptor Npr1. HEK293 hNpr1 GloSensor cGMP, ANP-stimulated luminescence. P16066. AID 1347048. Potency, µM (titrated, usually from 46.3 µM), for inactives: at the top dose activity change, negative = inhibition, actives largely listed as inhibitors. 76,000 compounds, 1.6% hits; active = well fitted inhibition curve with a large enough effect; inconclusive = small, poorly fitted or top-dose-only effect; inactive = no such curve, though single readings can be large or run the other way;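 further: nearly all actives have a fitted effect of over 60% in size; nearly all hits also lower the signal before the agonist is added; a reference antagonist and vehicle were the controls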
Target sequence (P16066 whole entry, looked up): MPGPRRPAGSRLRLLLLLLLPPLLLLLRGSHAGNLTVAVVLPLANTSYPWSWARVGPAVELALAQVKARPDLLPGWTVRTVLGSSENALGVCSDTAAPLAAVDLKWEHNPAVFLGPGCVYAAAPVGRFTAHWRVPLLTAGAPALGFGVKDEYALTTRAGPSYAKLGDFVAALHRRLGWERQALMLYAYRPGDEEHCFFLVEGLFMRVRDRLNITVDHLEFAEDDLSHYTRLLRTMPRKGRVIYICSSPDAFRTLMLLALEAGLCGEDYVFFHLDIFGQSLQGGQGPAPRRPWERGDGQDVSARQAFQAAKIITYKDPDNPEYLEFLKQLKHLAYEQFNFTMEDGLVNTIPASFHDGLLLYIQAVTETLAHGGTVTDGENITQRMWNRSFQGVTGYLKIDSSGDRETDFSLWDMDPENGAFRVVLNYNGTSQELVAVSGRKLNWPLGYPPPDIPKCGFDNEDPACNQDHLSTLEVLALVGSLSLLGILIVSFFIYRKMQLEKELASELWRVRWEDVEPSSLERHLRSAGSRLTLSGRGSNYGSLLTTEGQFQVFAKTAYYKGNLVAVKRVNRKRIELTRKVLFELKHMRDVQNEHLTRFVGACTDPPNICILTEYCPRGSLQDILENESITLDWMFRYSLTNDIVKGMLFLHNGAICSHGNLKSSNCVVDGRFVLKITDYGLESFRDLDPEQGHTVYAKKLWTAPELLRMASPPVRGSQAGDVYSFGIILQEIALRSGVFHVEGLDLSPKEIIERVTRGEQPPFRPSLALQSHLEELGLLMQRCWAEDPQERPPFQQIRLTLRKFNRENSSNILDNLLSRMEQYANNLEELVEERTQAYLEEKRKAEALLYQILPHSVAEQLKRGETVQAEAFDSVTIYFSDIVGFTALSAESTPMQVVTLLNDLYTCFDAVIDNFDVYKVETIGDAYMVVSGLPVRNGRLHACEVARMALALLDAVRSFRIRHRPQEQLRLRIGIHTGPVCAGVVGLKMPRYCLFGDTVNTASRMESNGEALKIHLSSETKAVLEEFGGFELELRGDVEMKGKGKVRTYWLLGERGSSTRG
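HEK293 cells stably expressing human Npr1 and cGMP GloSensor pGS-40F, loaded 2 h with 2% GloSensor reagent, given compound 30 min at room temperature. Luminescence read before and 20 min after 0.1 nM hNppA.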
Active calls of the source: *; ? = inconclusive; [ ] = remark or other dose. On the % scale 0 is the no-effect control and ±100 the full control effect; potency means the concentration at half of the fitted maximal effect. A portion of the library, so the mix of outcomes need not match the whole.

A first look (4 entries):
SMILES | NPR1 antag
CCCC(=O)N1CCN(C2CCN(CCc3ccccc3)C2=O)CC1 (centres undefined) | -5.6%
CC1=NOC2(CCN(C(=O)c3ccc(C(F)(F)F)cc3)C2)C1 (centres undefined) | 1.3%[70.6 µM]
Cc1ccc2nc(CN(C)Cc3cc(=O)c4cc(C(N)=O)ccc4[nH]3)[nH]c2c1 | 13.8%
COc1ccccc1-c1[nH]nc2ncc(-c3ccccc3C)nc12 | -17.1%[70.6 µM]

This part in full, repeating the preview:
SMILES | NPR1 antag
CCCC(=O)N1CCN(C2CCN(CCc3ccccc3)C2=O)CC1 (centres undefined) | -5.6%
CC1=NOC2(CCN(C(=O)c3ccc(C(F)(F)F)cc3)C2)C1 (centres undefined) | 1.3%[70.6 µM]
Cc1ccc2nc(CN(C)Cc3cc(=O)c4cc(C(N)=O)ccc4[nH]3)[nH]c2c1 | 13.8%
COc1ccccc1-c1[nH]nc2ncc(-c3ccccc3C)nc12 | -17.1%[70.6 µM]
CNC(=O)[C@@H]1CN(Cc2ccc(Cl)c(F)c2)C[C@H]1CO | 4.1%
COc1ccc(CNC(=O)C[C@@H]2[C@H](O)CCC3[C@](C)(CO)[C@H](OC(=O)NC4CCCCC4)CC[C@]32C)cc1 (some centres undefined) | -1.8%
COC(=O)c1c(NC(C)=O)c2cc(NC3CCN(C(C)=O)CC3)cnc2n1CC1CCCO1 (centres undefined) | -0.8%
CN(Cc1ccccc1)C(=O)[C@@H]1Cc2nc[nH]c2CN1Cc1ccc(C(=O)O)cc1 | -5.7%[70.6 µM]
C[C@H]1[C@@H]2[C@@H](O)C([C@H](C)C(=O)NCc3ccccn3)CC[C@@]2(C)CC[C@@H]1NC(=O)c1ccccc1 (some centres undefined) | -2.6%
COc1ccc(C(=O)NCCc2ncc(C)n2CC2CC2)cn1 | -20.1%
CN1CCCC2(CCN(S(=O)(=O)c3ccc(F)c(F)c3F)C2)C1=O (centres undefined) | 8.6%
CCOCC(=O)N1CCCN(S(C)(=O)=O)c2ccccc21 | 3.7%
COc1ccc(CC(=O)Nc2ccc([C@H]3OCC(=O)N(Cc4ccccc4)[C@@H]3CO)cc2)cc1 | 1.8%
CCc1noc([C@@H]2CC(F)(F)CN2C(=O)c2ccn(CC)n2)n1 | 1.3%
Cc1ncc2n1C(=O)N(C1CCN(C(=O)c3ccccc3Cl)CC1)C2 | -3.6%
Cc1ccc(NC(=O)Cn2c(-c3ccc(Cl)cc3)nc(C)c(CCO)c2=O)cc1C | -3.9%
COc1cccc(OCc2cc(C(=O)NC(CO)CO)n[nH]2)c1 | -4.4%
CCc1nc2c(=O)n(CC(=O)NC(C)c3ccc(F)cc3)nc(C)c2s1 (centres undefined) | 4.9%
CC[C@H]1CN(Cc2ccc(OC)cc2O)CC[C@H]1CC(=O)N(C)CC#N | -3.3%[70.6 µM]
Cc1ccc(-n2nc(C)c([C@@H]3C=C[C@@H](NC(=O)Nc4ccc(Cl)cc4)C3)c2C)cc1Cl | ?
N#Cc1cccc(-c2ccnc(N[C@H]3CO[C@H]4[C@@H]3OC[C@H]4OC(=O)Nc3cccc4ccccc34)n2)c1 | -29.0%
Cc1ccc(NC(=O)Cn2ccn3nc(-c4ccccc4)c(CO)c3c2=O)cc1F | -11.1%
CSCC(=O)NCCC[C@H](NC(=O)[C@@H]1[C@@H](NC(=O)Nc2cccc(SC)c2)CCN1C(=O)CSC)C(N)=O | 5.2%
Cc1cccc(OCC(=O)N2CCC(n3cc(-c4nc(C(C)C)no4)nn3)CC2)c1 | -11.0%
COCC(=O)NC1CCC12CCN(C(=O)c1ccc3ccccc3n1)CC2 (centres undefined) | -2.3%
CCNC(=O)N[C@H]1CO[C@H]2[C@@H]1OC[C@H]2OC(=O)Nc1ccc(C(C)=O)cc1 | 4.3%[70.6 µM]
CCn1nccc1C(=O)N1C[C@@H](CO)[C@H](c2ccccn2)C1 | -2.8%
OC[C@@H]1CNC[C@H]1C1CCN(Cc2cccc(F)c2)CC1 | 3.8%
Cc1cc(C)c2c(CC(=O)N3CCc4c(nc[nH]c4=O)C3)coc2c1C | 6.4%
COc1ccc(F)cc1C(=O)N1CCC2(CC1)CNC(C(=O)O)C2 (centres undefined) | 22.3%
Cn1c(COc2cccc(CN3CCCC3)c2Cl)nnc1C1CC(N)C1 (centres undefined) | 2.4%
O=C(NCC1Cn2cccc2C(=O)N1Cc1ccccc1)c1ccncc1 (centres undefined) | -9.0%
CC(C)(C)C(=O)N[C@H]1C[C@@H](Cc2cc(COc3ccccc3)on2)C1(C)C | -23.3%[70.6 µM]
COc1ccc(C(=O)N2CCc3nc(C(C)C)nc(-c4ccc(O)cc4)c3C2)cc1 | -0.9%
O=C(Nc1cccc(F)c1)N1CC(Oc2ccc(-c3noc(C4CCOCC4)n3)cc2)C1 | ?
N#Cc1ccc(CN2CCC3(C2)NC(=O)c2ccccc2O3)cc1 (centres undefined) | -2.8%[70.6 µM]
Cc1ccccc1-c1ncc(CN(C)C(C)c2ccon2)s1 (centres undefined) | -0.3%
CN1CCCC1CCn1nc(C2CCNCC2)n(Cc2ccccc2)c1=O (centres undefined) | -1.7%
Cc1ccc(N2CCC(NC(=O)Cc3ccccc3C)C2=O)cc1C (centres undefined) | 4.6%
Cc1noc(C)c1CCNC(=O)C1CCCN(S(C)(=O)=O)CCC(=O)NCC1 (centres undefined) | 7.7%
c1ccc(-c2noc(CC3CCOC4(CCN(Cc5cccnc5)CC4)C3)n2)cc1 (centres undefined) | ?
O=C(c1n[nH]c2ccccc12)N1C[C@@H](CO)[C@H](c2ccccn2)C1 | -2.9%
Cc1noc(-c2cn(C3CCCN(C(=O)c4ccc(C)c(F)c4)C3)nn2)n1 (centres undefined) | -13.9%
Cc1noc(C)c1S(=O)(=O)N1CCCC(Cc2nncn2C)C1 (centres undefined) | -3.9%
Cc1cc(-c2nn(-c3ccccc3F)cc2CN(C)C(C)c2ccon2)c(C)s1 (centres undefined) | -0.9%
CCc1noc(-c2cccn3c(CNC(=O)Cc4ccc(C)cc4)nnc23)n1 | 1.4%
CC(=O)NC1(C)CCCN(Cc2cccc(Nc3cccc(C#N)c3)c2)C1 (centres undefined) | ?
Cc1ccc(F)c(OC2(C(=O)O)CCN(CC3[C@H]4CNC[C@@H]34)CC2)c1 (some centres undefined) | 1.6%
COc1ccccc1CC(=O)N1CCC2(CC1)N=C(c1ccc(C)cc1)NO2 | -13.2%
O=C(c1cccc2[nH]ccc12)N1CCC(Cc2nncn2Cc2ccccc2)C1 (centres undefined) | -6.2%

(list continues)
SMILES | NPR1 antag
COc1ccc(-c2ccccc2)cc1N1C(=O)[C@@H]2C[C@H]1CN2Cc1nc[nH]c1C | 1.2%
COc1cc(OC)cc(C(=O)NC2CCN(c3cc(-c4ccc(F)cc4)[nH]n3)C2)c1 (centres undefined) | -3.5%
CCCS(=O)(=O)NCC1Cn2cccc2C(=O)N1CCOC (centres undefined) | 1.7%
COCc1cc(=O)n(CC(=O)Nc2ccc(C)cc2)c(N2CCOCC2)n1 | 0.5%
CS(=O)(=O)N1CCC(C2CCN(C(=O)c3ccc4nc[nH]c4c3)C2)CC1 (centres undefined) | 3.4%
N#Cc1cccc(CN2C[C@H](O)C[C@H]2c2nc(CS(=O)(=O)c3ccc(F)cc3)no2)c1 | -11.4%
O=C(CCC1CCCN(S(=O)(=O)c2ccccc2)C1)N1CCCCC1 (centres undefined) | ?
COCc1cc(CC2(NCc3ccccc3Cl)COC2)no1 | 5.5%[70.6 µM]
O=C(NCc1nnc2ccc(-c3ccc(F)cc3)nn12)c1ccc(Cl)s1 | 1.4%
Cc1cc(-c2nccc3c(=O)cc(N4CCOCC4)oc23)ccn1 | 4.6%[70.6 µM]
CCS(=O)(=O)N1CCC(Oc2ncccc2C(=O)N(C)C)C1 (centres undefined) | -2.6%
O=C(CCCc1ccccc1)NCCc1noc(-c2cccnc2)n1 | -2.2%
CCn1cc(S(=O)(=O)N2CCCCCCNC(=O)[C@@H]3CCCC[C@@H]32)cn1 | 2.6%
O=C(CCC1CCCN(S(=O)(=O)c2cccc(F)c2)C1)NC1CCCCC1 (centres undefined) | 15.8µM*
CN(C)[C@@H]1CN(C(=O)C2CCC2)CC[C@@H]1CO | -0.7%
CCn1c(C2CCCNC2)nn(Cc2noc(-c3ccc(C)cc3)n2)c1=O (centres undefined) | 3.5%
CCc1nc2c(c(-c3ccc(Cl)cc3)n1)CCN(Cc1ccccc1)CC2 | 0.0%
CN(C)c1ccc(-c2noc([C@@H]3CCCN3Cc3cnc4ccccc4c3)n2)cn1 | 14.1µM*
O=C1CCCN1CCC1CCCCN1C(=O)c1cn(Cc2ccc(F)cc2Cl)nn1 (centres undefined) | -8.7%
C=Cc1cccc(-c2nccn2-c2cccc(CN)c2)c1 | 1.5%

Retrieved one by one from above, 4 records:
SMILES | NPR1 antag
O=C(CCC1CCCN(S(=O)(=O)c2cccc(F)c2)C1)NC1CCCCC1 (centres undefined) | 15.8µM*
O=C1CCCN1CCC1CCCCN1C(=O)c1cn(Cc2ccc(F)cc2Cl)nn1 (centres undefined) | -8.7%
CN(C)[C@@H]1CN(C(=O)C2CCC2)CC[C@@H]1CO | -0.7%
CCn1c(C2CCCNC2)nn(Cc2noc(-c3ccc(C)cc3)n2)c1=O (centres undefined) | 3.5%

(list continues)
SMILES | NPR1 antag
O=C(NC1CCN(c2cc(-c3cccs3)[nH]n2)C1)c1ccccc1Br (centres undefined) | -23.7%
O=C(NCc1nnc2ccc(-c3ccccc3)nn12)c1ccc(Cl)cc1 | 3.3%
COc1ccc(-c2cnc3n2CC(C(=O)NCC2CC2)CC3)cc1 (centres undefined) | ?
Cn1cnc(S(=O)(=O)N2CCC(c3nc(C4CC4)no3)C2)c1 (centres undefined) | 0.7%
COC1CN(c2ccc(C)cc2)C12CCN(C(=O)c1ccco1)CC2 (centres undefined) | -9.5%
Oc1ccccc1CN(CCN1CCCCC1)CC1CCCN(C2CCCC2)C1 (centres undefined) | -2.5%
CN1CCC(N2CC[C@H](c3nnc(-c4ccccc4F)o3)C2)CC1 | 1.9%[70.6 µM]
COC1CCOC2(CCNCC2)C1 (centres undefined) | -1.1%
Cc1ccc([S+](=O)([O-])N2CCCC(c3nn(-c4ccc(F)cc4)c(=O)[nH]3)C2)cc1 (centres undefined) | -17.3%
COc1ccc(-c2cc(N3CCC(NC(=O)c4cccs4)CC3)n[nH]2)cc1 | -24.9%
CN(C)[S+](=O)([O-])c1ccc2c(c1)OCCN(Cc1cc(F)ccc1F)C2 | -4.1%[70.6 µM]
O=C(c1ccc(Cn2ccnc2)o1)N1CCCn2nc(CO)cc2C1 | 3.4%
Oc1cc(-c2nc3ccccc3s2)cc2c1OCCN(Cc1ncccn1)C2 | 2.7%
CCOc1cccc(CNC(=O)c2ccc3c(c2)N(S(=O)(=O)c2ccccc2)CC3)c1 | -3.7%
O=C1NCCN2CC3(CCN(S(=O)(=O)c4ccccc4)CC3)CC12 (centres undefined) | 1.4%
O=C(c1ccc(F)cc1)N1CC[C@H]2COC(=O)N2c2cc(F)ccc2C1 | 5.6%[70.6 µM]
Cc1nc(C)c(C(=O)N2CCCCCCNC(=O)[C@@H]3C[C@@H](c4nc(C(C)C)no4)C[C@@H]32)s1 | 4.7%
CC(Oc1ccc2ccccc2c1)C(=O)N(C)Cc1ccc2nsnc2c1 (centres undefined) | 0.3%
COc1ccc(-c2cnc3n[nH]c(-c4sccc4C)c3n2)cc1 | -9.2%[70.6 µM]
O=C(NC1CCCC1)C1(CCO)CCN(c2ncccn2)C1 (centres undefined) | 2.9%
Cc1cccc(CC(=O)N2C[C@@H](CN3CCCN(C)CC3)[C@@H](CO)C2)c1 | 6.9%
Cc1noc(C)c1CC(=O)N1CCCC1c1nc(C2CCOCC2)no1 (centres undefined) | 13.6%
CCn1ccc(C(=O)N2CCOc3ccc(CN4CCCCC4)cc3C2)n1 | 3.0%
CCN(CC)C(=O)C[C@@H]1CCNC[C@@H]1Cc1cc(-c2ccccc2)on1 | -1.3%[70.6 µM]
COc1cccc(NC(=O)N2CCCC(O)(CNS(C)(=O)=O)CC2)c1 (centres undefined) | -0.6%
COc1cc(CNC(=O)c2cnc3c(c2)N(C(=O)Cc2ccc(C(C)C)cc2)CCC3)cc(OC)c1 | -24.9%
Clc1ccc(-c2cnc3n2C[C@H](CNCc2ccc4c(c2)OCO4)OC3)cc1 | ?
Cc1noc2c(NCCc3ccccn3)cc(-c3ccccc3)nc12 | -2.1%[70.6 µM]
Cc1noc(-c2cccc(F)c2)c1C(=O)NCCSCc1ccccc1 | -11.1%
COCCn1c(=O)c2c(n1Cc1ccccc1)CN(C(=O)COc1ccccc1)CC2 | -1.8%[70.6 µM]
CCCN(C)c1nccnc1OC1CCN(C(=O)C2CC2)C1 (centres undefined) | -1.8%
COCCNC(=O)c1coc(COc2ccc3c(c2)C(c2ccc(F)cc2)N(C(=O)C(C)C)CC3)n1 (centres undefined) | -1.2%
O=C(c1ncn[nH]1)N1C[C@@H](COCC2CC2)[C@H](c2ccccn2)C1 | 2.8%
CCN1c2cc(C(=O)Nc3cccc(C#N)c3)ccc2C(=O)N2CCCCC21 (centres undefined) | -2.1%
COCCNC(=O)[C@H]1C[C@H](Oc2cccnc2)CN1C(=O)c1ccccc1 | -5.7%
CCOc1ccc(C(=O)N2CCC[C@H]2c2nc(-c3ccccc3)no2)cc1OCC | -8.3%
COC(=O)CNC(=O)C1c2ccccc2C(=O)N(CC(C)C)C12CCCCC2 (centres undefined) | 3.1%
CCOc1cccc(CN2C[C@@H](CO)[C@H](C3CCN(C(C)=O)CC3)C2)c1 | -1.9%

3 entries already listed, ordered by molecular weight, largest number first:
SMILES | NPR1 antag
CCOc1cccc(CNC(=O)c2ccc3c(c2)N(S(=O)(=O)c2ccccc2)CC3)c1 | -3.7%
CN1CCCC2(CCN(S(=O)(=O)c3ccc(F)c(F)c3F)C2)C1=O (centres undefined) | 8.6%
COc1ccccc1-c1[nH]nc2ncc(-c3ccccc3C)nc12 | -17.1%[70.6 µM]
